Screening results: PubChem, several laboratories
Beta2AR agonist – activates human beta-2 adrenergic receptor causing internalization; P07550; Am2.2-beta2AR cells, FAP receptor internalization, flow cytometry; reference of the scale not given here; response, % (no concentration beside the values); actives 0.43% (n = 340,000);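 active means response above a set limit, near 3 SD of response in nonfluorescent compounds, cut at about 42% in these data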;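 further: stock transfer was 100 nL into about 11 µL; a reference agonist was the positive control; negative values mostly stem from fluorescent compounds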
FGF22 binding – shifts melting point of recombinant human FGF22 | recombinant FGF22 thermal shift, SYPRO orange fluorescence; percent of sucrose octasulfate shift, DMSO zero | Q9HCT0 | calls only at 9.99 µM | actives 1.5% (n = 340,000);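 active means melting point raised past a set limit in the mean and every replicate; three in four hits are not shown here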
ALR inh – blocks human ALR sulfhydryl oxidase activity. P55789. purified ALR, DTT oxidation, H2O2 HRP-luminol luminescence. inhibition, % (no concentration beside the values). actives 3.8% (n = 290,000);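 active means mean and each replicate at 75% or more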;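 further: stock transfer was 7.5 nL into about 7.5 µL; 0% = neutral wells and 100% = wells with inactivated enzyme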
Target sequence (P55789 whole entry, looked up): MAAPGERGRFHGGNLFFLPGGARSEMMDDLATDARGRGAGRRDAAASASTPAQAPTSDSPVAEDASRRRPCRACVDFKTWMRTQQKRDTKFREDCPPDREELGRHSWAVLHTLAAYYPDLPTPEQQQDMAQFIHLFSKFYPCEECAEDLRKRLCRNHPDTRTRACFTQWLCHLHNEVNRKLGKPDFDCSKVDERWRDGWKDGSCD
UCH37 inh – blocks the human deubiquitinase UCH37; Q9Y5K5; purified proteasome/UCH37, Ub-AMC cleavage fluorescence; inhibition, % (test concentration not listed); actives 0.33% (n = 330,000); AID 588478;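 active means mean of two replicates above 20%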;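 further: 0% = compound-free wells with enzyme and 100% = wells lacking proteasome; stock transfer was 100 nL into about 20 µL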
Target sequence (Q9Y5K5 whole entry, looked up): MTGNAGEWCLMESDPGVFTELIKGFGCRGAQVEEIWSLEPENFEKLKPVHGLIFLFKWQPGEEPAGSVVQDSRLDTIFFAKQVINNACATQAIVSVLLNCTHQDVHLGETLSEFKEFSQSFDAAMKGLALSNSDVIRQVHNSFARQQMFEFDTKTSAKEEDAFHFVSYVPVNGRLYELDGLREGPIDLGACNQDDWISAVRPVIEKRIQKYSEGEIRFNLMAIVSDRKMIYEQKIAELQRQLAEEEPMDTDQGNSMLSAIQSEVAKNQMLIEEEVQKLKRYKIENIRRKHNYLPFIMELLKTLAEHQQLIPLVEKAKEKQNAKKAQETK
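Material: human UCH37 enzyme supplied as purified proteasome complex / Amount: 0.15 nM proteasome as dispensed / Buffer or medium: pH 7.4 Tris-HCl (50 mM) with ovalbumin, ATP-MgCl2, DTT / Times: preincubation 30 min, reaction 25 min, room temperature / Technique: AMC fluorescence from Ub-AMC cleavage, excitation 355 nm, emission 460 nm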
Ecoli growth – blocks Escherichia coli growth; OD600, 23 h; stronger effect = lower value; OD600 absorbance (test concentration not listed); actives 0.21% (n = 330,000); AID 1053175;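 active means OD600 absorbance below the run mean of sample wells minus 3.6 SD, in any replicate, cut at about 0.56 in these data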;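 further: stock transfer was 300 nL into about 60 µL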
HNF4A DNA FP – change in binding of human HNF4 alpha to DNA; P41235; HNF4a-FITC DNA binding, fluorescence polarization, 1 h; activity change, % at 10 µM; actives 0.3% (n = 360,000); in the data active means activity change above about 30%, passing the limit was not always enough;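 further: controls were the assay level and a saturating level of protein; the project sought stronger binding though the title names inhibitors; some compounds called inactive have numbers as strong as hits; positive values seem to mean higher polarization but the record does not say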
Target sequence (P41235 whole entry, looked up): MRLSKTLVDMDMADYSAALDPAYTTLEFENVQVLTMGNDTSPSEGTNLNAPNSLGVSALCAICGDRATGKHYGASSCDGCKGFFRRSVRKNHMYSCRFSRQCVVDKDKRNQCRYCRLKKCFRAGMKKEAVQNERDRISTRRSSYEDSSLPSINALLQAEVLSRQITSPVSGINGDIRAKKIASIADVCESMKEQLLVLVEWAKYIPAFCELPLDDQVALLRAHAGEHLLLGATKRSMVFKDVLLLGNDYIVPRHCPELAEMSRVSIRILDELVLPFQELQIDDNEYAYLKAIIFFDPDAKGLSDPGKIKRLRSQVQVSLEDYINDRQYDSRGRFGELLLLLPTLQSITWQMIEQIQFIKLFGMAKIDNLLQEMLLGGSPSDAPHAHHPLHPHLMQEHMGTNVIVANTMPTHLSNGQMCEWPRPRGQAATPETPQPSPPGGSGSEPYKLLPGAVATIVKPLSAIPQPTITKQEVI
rRNA inh HTS – inhibits bacterial ribosomal RNA function over humanized ribosomes; GFP signal change (wild-type ribosome), % (test concentration not listed); actives 1.6% (n = 350,000); E. coli WT GFP vs humanized-ribosome RFP mutants, fluorescence, 24 h; stronger effect = lower value; DMSO median 0, no signal -100;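 active means significant combined selectivity score with lowered wild-type GFP, culture density cut under 30%, mutant RFP and density less affected; inactive means any of these conditions unmet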; further: one replicate is shown; some compounds called inactive have numbers as strong as hits
rRNA inh HTS OD600 – second read-out of rRNA inh HTS, no call of its own (marks repeat the call); OD600 change, %; measured here: OD600 growth;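 optical density of the mix in the first replicate; 0 = DMSO median and -100 = no signal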
rRNA inh HTS RFP – second read-out of rRNA inh HTS, no call of its own (marks repeat the call); RFP signal change, %; measured here: RFP humanized mutant strains;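 first replicate; 0 = DMSO median and -100 = no signal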
Active calls of the source: *; i = inactive; . = not tested or not shown.

SMILES	Beta2AR agonist	FGF22 binding	ALR inh	UCH37 inh	Ecoli growth	HNF4A DNA FP	rRNA inh HTS	rRNA inh HTS OD600	rRNA inh HTS RFP
Cc1cc(C)nc(Nc2n[nH]c(-c3ccc(N)cc3)n2)n1	2	.	99*	1.9	0.71	-2.6	.	.	.
CCN(CC)S(=O)(=O)c1ccc(N2CCOCC2)c(NC(=O)CN2C(=O)NC(C)(c3ccccc3)C2=O)c1 (stereo unspecified)	-1	i	-5	3.2	0.69	2.1	-3	-2	0.6
COc1cccc(NC(=O)CN(C)C(=O)COc2ccccc2Cc2ccccc2)c1	6	i	-4	4.1	0.69	-1.1	-30	-48	-10
Cc1ccc2oc(-c3ccccc3C(=O)O)cc(=O)c2c1	2	.	.	3.0	0.72	-0.2	.	.	.
COc1ccccc1OCc1nnc(SCC(N)=O)n1-c1ccccc1	-7	i	-7	5.6	0.7	-0.6	-2	-5	0.3
Cc1nnc(SCc2c(Cl)cccc2Cl)s1	-3	.	5	2.8	0.77	-1.6	.	.	.
CC(C)c1ccc(NC(=O)c2cc(-c3cc(F)ccc3OCC3CCCO3)n[nH]2)cc1 (stereo unspecified)	.	i	.	.	.	-1.9	0	22	-0.4
COc1ccc(Cl)cc1-c1nc(-c2ccncc2)no1	-12	.	-4	-8.8	0.74	0.6	.	.	.
Cc1nn(Cc2noc(C(=O)NC3CCC(C)CC3)n2)c(C)c1Br (stereo unspecified)	-1	i	-6	0.7	0.71	2.3	3	16	0.7
COc1ccc(NC(=O)Nc2cccc3cccnc23)cc1	-9	.	-1	2.5	0.67	-1.9	.	.	.
CC1CCCCC1NC(=O)c1c(O)nc2ccccn2c1=O (stereo unspecified)	11	i	6	-51	0.63	-4.6	-8	-12	0.9
Cc1cc(C)c2nc(N3CCC(C(=O)N4CCN(c5ncccn5)CC4)CC3)sc2c1	-2	.	-2	2.5	0.71	-1.4	.	.	.
COc1ccc(OC)c(C2C(C(=O)c3sc(C)nc3C)=C(O)C(=O)N2CCN2CCOCC2)c1 (stereo unspecified)	-2	.	3	11	0.79	1.8	.	.	.
CN(C)C(CNC(=O)CNC(=O)Cc1cccc2ccccc12)c1ccccc1 (stereo unspecified)	2	i	18	-8.5	0.65	1.5	5	4	0.7
COC(=O)[C@]12CCCCC=C1N(Cc1ccco1)C(=O)[C@H](CC(=O)NCCc1ccccc1OC)C2	.	i	.	.	.	0.6	-4	-1	2.7

4 records drawn at random from the list so far, as already listed:
SMILES	Beta2AR agonist	FGF22 binding	ALR inh	UCH37 inh	Ecoli growth	HNF4A DNA FP	rRNA inh HTS	rRNA inh HTS OD600	rRNA inh HTS RFP
CC(C)c1ccc(NC(=O)c2cc(-c3cc(F)ccc3OCC3CCCO3)n[nH]2)cc1 (stereo unspecified)	.	i	.	.	.	-1.9	0	22	-0.4
CN(C)C(CNC(=O)CNC(=O)Cc1cccc2ccccc12)c1ccccc1 (stereo unspecified)	2	i	18	-8.5	0.65	1.5	5	4	0.7
COc1ccc(Cl)cc1-c1nc(-c2ccncc2)no1	-12	.	-4	-8.8	0.74	0.6	.	.	.
COc1ccc(OC)c(C2C(C(=O)c3sc(C)nc3C)=C(O)C(=O)N2CCN2CCOCC2)c1 (stereo unspecified)	-2	.	3	11	0.79	1.8	.	.	.

Carrying on:
SMILES	Beta2AR agonist	FGF22 binding	ALR inh	UCH37 inh	Ecoli growth	HNF4A DNA FP	rRNA inh HTS	rRNA inh HTS OD600	rRNA inh HTS RFP
O=C(COC(=O)c1nc(Cl)ccc1Cl)Nc1ncc(Cl)cc1Cl	4	i	3	4.1	0.66	5.0	2	12	3.7
Cc1ccc(-c2nc(S(=O)(=O)c3ccc(C)cc3)c(N(C)C)o2)cc1	0	i	8	4.9	0.7	-0.5	14	14	2.4
COc1ccc(-n2c(SCc3ccccn3)nc3c(c2=O)SCC3)cc1OC	-10	i	.	6.9	0.67	-0.3	2	1	2.1
O=C(COC(=O)c1cnccn1)NCc1ccc(Cl)cc1	-1	i	-3	-0.3	0.68	-1.0	23	24	9.0
NC(=O)c1ccsc1NC(=O)COC(=O)COc1ccccc1[N+](=O)[O-]	-3	i	-1	.	.	0.0	7	13	2.3
COc1cc(C(=O)NC2CCCc3ccccc32)ccc1OCC(=O)Nc1ccc(F)cc1 (stereo unspecified)	2	.	3	0.7	0.7	2.5	9	9	1.5
CCOc1cc2[nH]c(=O)n(CCC(=O)NCCc3ccc(OC)c(OC)c3)c(=O)c2cc1OCC	-4	.	.	-3.5	0.73	0.6	.	.	.
COCCNC(=O)c1ccc(N2CCC3(CC2)OCCO3)c([N+](=O)[O-])c1	0	.	-1	3.5	0.66	2.4	.	.	.
N#Cc1ccc(COC(=O)C2CCC(=O)N2)cc1 (stereo unspecified)	-13	.	-1	3.5	0.67	0.6	.	.	.
CC(C)NC(=O)C(=O)Nc1cc2c3c(c1)CCC(=O)N3CCC2	3	i	1	2.5	0.74	3.7	-1	4	-1.9
CSc1cccc(NC(=O)N2CCCC(CNS(=O)(=O)Cc3ccccc3)C2)c1 (stereo unspecified)	4	i	-14	5.9	0.69	1.6	-8	-5	3.3
O=C(Nc1ccccc1)C1=C[C@@H](C2CC2)C[C@@H](OCCCCO)O1	-7	i	-6	1.3	.	2.8	5	7	0.1
O=C(CCN1C(=O)[C@@H]2Cc3ccccc3CN2C1=O)NCc1ccccc1Cl	-1	i	1	-2.0	0.63	-4.8	0	7	-4.1
Cc1cccc(NC(=O)CCCC(=O)OC(C)C(=O)c2ccccc2)c1 (stereo unspecified)	-4	i	1	2.3	0.71	0.2	-2	-16	-2.3
CCC(C)[C@H](NC(=O)N1CC(=O)Nc2ccccc21)C(=O)N1CCC(C(=O)O)CC1 (stereo partly specified)	-2	i	.	2.0	0.68	2.5	6	9	-1.0

Some of the entries so far, with values ahead of the structure:
Beta2AR agonist | FGF22 binding | ALR inh | UCH37 inh | Ecoli growth | HNF4A DNA FP | rRNA inh HTS | rRNA inh HTS OD600 | rRNA inh HTS RFP | SMILES
-1 | i | 1 | -2.0 | 0.63 | -4.8 | 0 | 7 | -4.1 | O=C(CCN1C(=O)[C@@H]2Cc3ccccc3CN2C1=O)NCc1ccccc1Cl
-4 | i | 1 | 2.3 | 0.71 | 0.2 | -2 | -16 | -2.3 | Cc1cccc(NC(=O)CCCC(=O)OC(C)C(=O)c2ccccc2)c1 (stereo unspecified)

(next part)
SMILES	Beta2AR agonist	FGF22 binding	ALR inh	UCH37 inh	Ecoli growth	HNF4A DNA FP	rRNA inh HTS	rRNA inh HTS OD600	rRNA inh HTS RFP
Cn1c(=O)n(Cc2ccccc2Br)c2ccccc21	3	i	0	-1.6	0.64	6.9	-23	-30	-3.4
Cc1cc(C)c(C)c(OCCn2ccnc2)c1	3	i	-10	-1.6	0.62	-0.7	-17	-16	-11
c1ccc(CSc2nnc(NC3CCCCC3)s2)cc1	.	i	.	.	.	-0.1	-3	5	-8.2
COCCCN1CC23C=CC(O2)C(C(=O)OC)C3C1=O (stereo unspecified)	-6	.	-5	0.7	0.64	5.6	.	.	.
Cc1cc(C(=O)Nc2ccc3c(c2)OCO3)no1	5	i	-12	5.1	0.69	0.8	5	5	-3.7
CC(C)N(Cc1ccccc1)C(=O)COC(=O)c1c(F)cccc1F	-9	.	-2	-2.5	0.72	3.0	-13	-22	1.5
Cc1cc(NC(=O)c2c(F)c(F)c(F)c(F)c2F)no1	0	.	-4	3.9	0.75	2.2	.	.	.
Cc1nnc(SCc2cccc([N+](=O)[O-])c2)s1	-2	.	12	5.9	0.69	2.0	8	9	-5.2
CC(=O)c1ccc(NC(=O)CN2CCN(S(=O)(=O)c3ccc4c(c3)OCCO4)CC2)cc1	.	i	.	.	.	2.6	-3	1	-0.5
CC(=O)NC(C)(c1ccccc1)c1nc(-c2ccc(S(C)(=O)=O)cc2)cs1 (stereo unspecified)	.	i	.	.	.	2.9	8	17	3.2
Cc1ccc(NCc2nnc(SCC(=O)Nc3nnc(C)s3)n2C)cc1	-2	i	1	1.0	0.68	1.1	6	12	-0.5
CC1=NN(c2ccc(C)cc2C)C(=O)C1C(c1ccccc1O)C1C(=O)N(c2ccc(C)cc2C)N=C1C (stereo unspecified)	8	.	8	7.8	0.67	-1.2	.	.	.
O=c1c(-c2ccccc2)cocc1-c1ccccc1	.	i	.	.	.	2.2	-2	23	0.3
Cc1cccc(OCCCSc2nc3ccc(C)cc3[nH]2)c1	3	.	42	-1.7	0.72	0.9	.	.	.
CC1CN(S(=O)(=O)c2cccc(C(=O)OC(C)C(=O)NC3CCCCC3C)c2)CC(C)O1 (stereo unspecified)	-1	i	3	0.3	0.69	1.2	7	2	4.1
O=C(CNS(=O)(=O)c1cccs1)NCc1ccccc1	2	i	-5	-0.4	0.67	4.3	8	2	9.1
COc1cccc(-n2c(Cc3cc(=O)[nH]c(=O)[nH]3)nnc2SCC(=O)N2CCCCC2)c1	-6	i	.	0.0	0.73	-6.2	12	21	3.0
COc1cc(C2C3=C(CCCC3=O)Nc3c2c(C)nn3-c2cccc(C)c2)cc(OC)c1O (stereo unspecified)	2	i	-5	5.3	0.69	-3.0	3	-7	2.2
CCOc1cc(/C=N/NC(=O)C(=O)N2CCCC2)ccc1O	-8	.	99*	.	.	1.9	14	9	2.5
Cc1cccc(NC(=O)Cn2cnc3sc(C)c(S(=O)(=O)N4CCC(C)CC4)c3c2=O)n1	-2	.	.	2.3	0.78	-2.2	.	.	.
O=C1c2ccccc2C2=Nc3ccccc3SC(c3cccc(F)c3)C12 (stereo unspecified)	2	.	.	0.7	0.59	6.8	.	.	.
NC(=O)C(c1ccc(Sc2ccccc2)nn1)c1ccc(Cl)cc1Cl (stereo unspecified)	0	.	2	-1.7	0.67	-0.8	.	.	.
O=C(NCCc1ccccc1)c1cccc2c(-c3ccc(F)c(F)c3)coc12	.	i	.	.	.	-5.7	-5	-14	3.3
COc1ccc(-n2nc(C(=O)O)c3ccccc3c2=O)cc1	9	.	-5	1.1	0.66	3.4	.	.	.
O=C(Nc1nccs1)c1cc(-c2ccncc2)nc2ccccc12	-8	i	-3	4.3	0.68	3.7	-7	-8	-4.2
Cc1cc(C)c2cc(C#N)c(SCC(=O)NCC3CCCO3)nc2c1 (stereo unspecified)	-1	.	-7	-20	0.7	1.9	.	.	.
O=C(CCC(=O)Nc1ccc(Cl)cc1)N/N=C/c1ccc2c(c1)OCO2	-12	i	-10	.	.	1.8	10	9	-0.7
Cc1ccccc1C1C(C#N)=C2N=C(N)c3ccccc3N2C2=C1C(=O)CCC2 (stereo unspecified)	3	i	-4	4.8	0.72	-2.5	-4	-10	4.8
CCCCc1cn(C[C@H]2CC[C@@H]([C@@H]3CC[C@H](Cn4cc(CCCC)nn4)O3)O2)nn1	-17	i	.	-1.5	.	-2.2	-2	4	-5.3
CC12CCC(C(=O)N(CSC(=S)N/N=C\c3ccccc3Cl)C1=O)C2(C)C (stereo unspecified)	1	.	4	.	.	1.1	.	.	.
COc1ccccc1Nc1nc(-c2sc(N)nc2C)cs1	14	i	-17	6.5	0.7	15	-1	0	-1.6
O=C1NC(Cc2ccccc2)c2nc3cc(F)ccc3c(=O)n2-c2ccccc21 (stereo unspecified)	.	i	5	.	.	.	9	20	12
COc1ccc(CC(=O)Oc2ccccc2Cl)cc1S(=O)(=O)N1CCOCC1	12	i	11	5.1	0.64	-6.5	7	18	-1.1

Some entries already given, reduced to rRNA inh HTS and HNF4A DNA FP.
Compound	rRNA inh HTS	HNF4A DNA FP
O=C(NCCc1ccccc1)c1cccc2c(-c3ccc(F)c(F)c3)coc12	-5	-5.7
COc1ccc(-n2nc(C(=O)O)c3ccccc3c2=O)cc1	.	3.4
O=C(Nc1nccs1)c1cc(-c2ccncc2)nc2ccccc12	-7	3.7

Only part of the results is shown; the hit share may differ from the screen's.
